# High-throughput results as filed in PubChem BioAssay.
# Cruzain noTriton: qHTS Assay for Promiscuous and Specific Inhibitors of Cruzain (without detergent) | Cruzipain (Trypanosoma cruzi), P25779 | purified cruzain, Z-FR-AMC fluorescence, no detergent | Potency, µM, for inactives: max response, negative = inhibition, most hits filed as inhibitors | 200,000 compounds, 2.3% hits; active = well fitted curve in the direction sought with a large enough effect; inconclusive = small, poorly fitted or top-dose-only effect, or another doubt; inactive = no such curve, though single readings can be large; an effect the other way counts as inactive or inconclusive;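 also: plate controls were enzyme without inhibitor for no effect and buffer without enzyme for full effect; nearly all actives have a fitted effect of over 40% in size; top concentration of the series not given in the record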
# Target sequence (P25779 123-467 limits assumed): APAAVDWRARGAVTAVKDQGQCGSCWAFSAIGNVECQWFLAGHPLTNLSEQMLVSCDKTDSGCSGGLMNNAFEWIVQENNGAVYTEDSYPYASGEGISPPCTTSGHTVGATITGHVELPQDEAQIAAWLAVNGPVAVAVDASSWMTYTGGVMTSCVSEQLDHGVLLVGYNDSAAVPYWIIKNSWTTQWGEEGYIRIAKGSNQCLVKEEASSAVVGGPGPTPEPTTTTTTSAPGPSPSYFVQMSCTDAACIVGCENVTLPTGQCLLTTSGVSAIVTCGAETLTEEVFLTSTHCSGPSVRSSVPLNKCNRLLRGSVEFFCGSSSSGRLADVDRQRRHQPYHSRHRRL
#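 Purified cruzain at 1.5 nM, pre-incubated 15 min with compound at room temperature in 100 mM sodium acetate pH 5.5, 5 mM DTT, 0.00005% Triton X-100. Reaction started with 2 uM Z-FR-AMC; AMC fluorescence increase over 60 s gives rate.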
# MARV entry inh: qHTS for inhibitors of binding or entry into cells for Marburg Virus; Marburg virus pseudotyped entry inhibition, cell reporter; control for the full effect not named in the record; about a third of the inactives were read at about 46 µM; Potency, µM (top dose mostly 37.8 µM), for inactives: at the highest dose activity change, negative = inhibition, hits mostly inhibitors; 300,000 compounds, 1.8% hits; AID 540276, 2011; active = well fitted inhibition curve with a large enough effect; inconclusive = small, poorly fitted or top-dose-only effect, or effect the other way; inactive = flat fitted curve, though single readings scatter; tested in HEK293 cells; about a fifth of its hits are not listed in these tables; also: % is scaled to controls: 0 for no effect and ±100 for the full control effect; luciferase read-out
# LASV entry inh: qHTS for Inhibitors of binding or entry into cells for Lassa Virus; Lassa virus pseudotype entry inhibition, cell reporter; control for the full effect not named in the record; Potency, µM (titrated, usually from 37.9 µM), for the others: top-dose activity change, negative = inhibition, usual class: inhibitors; 300,000 compounds, 1.2% hits; active means well fitted inhibition curve with a large enough effect; inconclusive means small, poorly fitted or top-dose-only effect, or effect the other way; inactive means flat fitted curve, though single readings scatter; tested in HEK293 cells; also: % is scaled to controls: 0 for no effect and ±100 for the full control effect; nearly all actives have a fitted effect of over 50% in size; luciferase read-out
# 2A StopGo: High Throughput Screening for Foot and Mouth Disease Virus Antivirals | human cells with a luciferase reporter of 2A StopGo recoding; control for the full effect not named in the record | Potency, µM (series often up to 57.9 µM), for the others: at the highest dose signal change, negative = less light | 410,000 compounds, 1.2% hits | AID 1159524, 2015; active = well fitted falling curve with a large enough effect; inconclusive = small, poorly fitted or top-dose-only effect; inactive = no such curve, though single readings can be large or run the other way; tested in HEK293T cells; also: % is scaled to controls: 0 for no effect and ±100 for the full control effect; nearly all actives have a fitted effect of over 45% in size; luciferase light after 4 h
# Cruzain inh Det: qHTS Assay for Promiscuous and Specific Inhibitors of Cruzain (with detergent) | Cruzipain (Trypanosoma cruzi), P25779 | purified cruzain, Z-FR-AMC fluorescence, 0.01% Triton | Potency, µM, without a hit: max response, negative = inhibition, most hits filed as inhibitors | 200,000 compounds, 0.43% hits | AID 1478, 2009; active = well fitted curve in the direction sought with a large enough effect; inconclusive = small, poorly fitted or top-dose-only effect, or another doubt; inactive = no such curve, though single readings can be large; an effect the other way counts as inactive or inconclusive;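 also: plate controls were neutral wells for no effect and buffer without enzyme for full effect; nearly all actives have a fitted effect of over 40% in size; top concentration of the series not given in the record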
#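 Cysteine protease activity tested under reducing, mildly acidic conditions (100 mM sodium acetate pH 5.5, 5 mM DTT) plus 0.01% Triton X-100. Cruzain 1.5 nM; substrate Z-FR-AMC 2 uM; 15 min compound preincubation at room temperature.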
# RE007 growth inh: qHTS Assay for Inhibitors of the HIV-1 protein Vpr. S. pombe RE007 Vpr strain, BacTiter-Glo ATP luminescence, 24 h; control for the full effect not named in the record. Potency, µM (series often up to 92.2 µM), for the others: top-dose activity change, negative = less growth. 360,000 compounds, 0.21% hits; active = well fitted falling curve with a large enough effect; inconclusive = small, poorly fitted or top-dose-only effect; inactive = no such curve, though single readings can be large or run the other way;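 also: % is scaled to controls: 0 for no effect and ±100 for the full control effect; nearly all actives have a fitted effect of over 50% in size; the assay follows cell death caused by Vpr and the record does not say whether a fall means rescue or toxicity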
#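 Fission yeast strain RE007, carrying one chromosomally integrated HIV-1 vpr copy, was seeded at OD 0.01 in PMG+AL medium with 23 nL pinned compound. After 24 h at 30 °C and 99% humidity, viability was read by BacTiter-Glo luminescence.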
# SARS PLP yeast: qHTS of Yeast-based Assay for SARS-CoV PLP; S. cerevisiae expressing SARS-CoV PLpro, growth rescue; control for the full effect not named in the record; Potency, µM (titrated, usually from 32.9 µM), for inactives: at the highest dose activity, positive = growth rescue; 330,000 compounds, 0.19% hits; AID 485353, 2010; also: 0% is about no effect; nearly all actives have a fitted effect of over 55% in size; growth read by luminescence after 48 h
# NS1 function inh: qHTS Assay for Inhibitors of Influenza NS1 Protein Function. S. cerevisiae slowed by influenza A NS1, growth recovery by OD600. Potency, µM (series often up to 46.1 µM), for inactives: at the highest dose activity, positive = more growth. 270,000 compounds, 0.4% hits. AID 2326, 2010; also: actives are rising curves; nearly all actives have a fitted effect of over 50% in size
#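 S. cerevisiae expressing influenza A NS1, grown in glucose, washed, then diluted 1:100 into pH 6.0 -URA galactose medium with 23 nl compound. Growth recovery read as OD600; NS1-free strain serves as control.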
# Active calls of the source: *; ? = inconclusive; · = no result given; [ ] = dose if it differs, or a comment. Unless noted, calls follow the shape of the dose curve; as a rule, active means well fitted rising curve with a large enough effect; inconclusive means small, poorly fitted or top-dose-only effect; inactive means no such curve, though single readings can be large or run the other way. Potency is read from the fitted curve at half-maximal effect.
item	smiles	NS1 function inh	Cruzain inh Det	LASV entry inh	RE007 growth inh
1	COc1ccc(C2C(C(C)=O)=C(C)N=c3s/c(=C\c4ccc5c(c4)OCO5)c(=O)n32)c(OC)c1 (stereo unspecified)	·	·	-3%	2%
2	COC(C(=O)Nc1ccc(C(N)=O)cc1)c1ccccc1 (stereo unspecified)	0%	·	·	-3%
3	Cc1nc2ccc(NC(=S)NCCCO)cc2nc1C	7%	·	11%[46.1 µM]	13%
4	O=C(/C=C/Sc1ccccc1)c1ccccc1	-33%	-6.8%	0%	?
5	O=S(=O)(c1ccc2nc(COc3ccc(Cl)cc3Cl)[nH]c2c1)N1CCOCC1	-9%	-10%	-1%	1%
6	COc1cccc(-c2onc3ccc(C(=O)/C=C/N(C)C)cc23)c1	14%	·	4%[46.1 µM]	164%
7	CCOC(=O)C1=C(c2ccccc2)NC(N)=NC1c1ccc(OCc2ccc(C(=O)OC)cc2)cc1 (stereo unspecified)	4%	·	·	9%
8	CCOC(=O)c1nn(-c2cccc(OC)c2)c(-c2ccccc2)c1C(=O)c1ccccc1	24%	-2.8%	?	-3%
9	COc1ccc(CCNC(=O)C(=O)NCC2OCCN2S(=O)(=O)c2ccc(OC)c(C)c2)cc1 (stereo unspecified)	-13%	·	·	-1%
10	C#CCCOC(=O)N1C2=NC(C(=O)OC)=C(C(=O)OC)[C@@H]3N(CC=C)c4ccccc4[C@]23C[C@H]1C(=O)OC	-5%	·	·	-4%
11	COc1cccc2cc(C(=O)CC3(O)C(=O)N(Cc4ccccc4)c4ccccc43)c(=O)oc12 (stereo unspecified)	-5%	-0.1%	6%	-2%
12	O=c1[nH]c2ccccc2[nH]c1=O	0%	·	·	0%

item	Cruzain noTriton	MARV entry inh	2A StopGo	SARS PLP yeast
1	·	?	-20%	·
2	·	·	-12%	0%
3	·	13%[46.1 µM]	17%	1%
4	-14%	?	·	-25%
5	-12%	-22%	·	-2%
6	·	-9%[46.1 µM]	-5%	-3%
7	·	·	-18%	0%
8	3%	?	-9%	-2%
9	·	·	-15%	3%
10	·	?	-18%	-1%
11	3%	6%	-11%	-4%
12	·	·	-8%	0%

# (further entries)
item	smiles	NS1 function inh	Cruzain inh Det	LASV entry inh	RE007 growth inh
13	O=C(NCC(=O)N1CCN(Cc2c(F)cccc2Cl)CC1)c1cccc(Cl)c1	·	·	-7%	8%
14	CCOc1ccc(S(=O)(=O)Nc2cccc(C(=O)NCC(c3ccccc3)N(C)C)c2)cc1 (stereo unspecified)	·	·	-17%	-24%
15	COc1ccc(CCC(C)NC(=O)CCc2ccccc2)c(OC)c1 (stereo unspecified)	-46%	·	?	12%
16	Cn1c(=NC(=O)c2ccco2)sc2ccccc21	-43%	·	·	-12%
17	Cc1cc(C)c(-n2c(SCC(=O)N3CCOCC3)n[nH]c2=O)c(C)c1	-1%	·	·	13%
18	CCCNC(=O)C1Cc2cc(S(=O)(=O)N3CCCC3)ccc2N1C(C)=O (stereo unspecified)	4%	·	20%[46.1 µM]	-3%
19	O=S(=O)(c1cccc(C(F)(F)F)c1)N1CCN(c2nnnn2-c2ccccc2)CC1	0%	2.1%	-22%	17%
20	Cc1cc(N2CCN(C(=O)Nc3ccccc3C#N)CC2)c2ccccc2n1	16%	·	·	1%
21	Cc1ccn2cc(-c3cccc(S(=O)(=O)N4CC(C)OC(C)C4)c3)nc2c1 (stereo unspecified)	-5%	·	·	2%
22	N#Cc1c2n(c(=O)[nH]c1=O)CCCCC2	-9%	-2.7%	10%	-2%
23	COC(=O)c1sc(NC(=O)COc2ccccc2C)nc1C	·	·	-2%	-5%
24	O=[N+]([O-])c1cccnc1N1CCC(c2cc(-c3ccc(Cl)cc3Cl)n[nH]2)CC1	18%	-2.6%	?	4%

item	Cruzain noTriton	MARV entry inh	2A StopGo	SARS PLP yeast
13	·	?	-23%	2%
14	·	?	28%	2%
15	·	?	3%	-1%
16	·	?	-13%	-1%
17	·	·	-19%	3%
18	·	11%[46.1 µM]	-8%	4%
19	6%	2%	3%	4%
20	·	·	-26%	0%
21	·	·	?	3%
22	-4%	?	-15%	-11%
23	·	4%[46.1 µM]	66%[activator]	-4%
24	-18%	?	0%	-22%

# Later entries.
item	smiles	NS1 function inh	Cruzain inh Det	LASV entry inh	RE007 growth inh
25	CCC(C(=O)NCc1ccccc1)n1ncn2c(cc3occc32)c1=O (stereo unspecified)	·	-2.9%	25%[46.1 µM]	·
26	CN(C)C(=O)c1ccc2c(c1)N(CC(=O)NCc1ccccc1Cl)C(=O)C1CCCCN21 (stereo unspecified)	·	-3.7%	17%[46.1 µM]	·
27	CCOC(=O)c1sc(NC(=O)CCc2ccccc2)nc1C	5%	·	·	-12%
28	O=c1c(-c2ccccc2)c(O)nc(SCCN2CCOCC2)n1-c1ccccc1	0%	-0.8%	-3%	10%
29	O=C(O)CCCCCCCCc1cn(Cc2ccc(C(=O)c3ccccc3)cc2)nn1	1%	·	·	-3%
30	CC1(C)CSC(Nc2ccc(F)c(Cl)c2)=N1	?	0.6%	6%	-12%
31	Cc1nnc(NC(=O)CCN2C(=O)/C(=C\c3ccccc3)SC2=S)s1	-2%	·	24%[46.1 µM]	24%
32	O=C(CNS(=O)(=O)c1ccccc1)N1CCN(c2ccccc2)CC1	2%	0.7%	4%	-7%
33	O=C(Nc1cccc(Cl)c1Cl)C1CC(=O)N(c2ccc(Br)cc2)C1 (stereo unspecified)	8%	-1.1%	-5%	-8%
34	NNC(=O)c1nc[nH]c1C(=O)Nc1ccccc1[N+](=O)[O-]	·	·	-8%	10%
35	CCOc1ccc(N(C(=O)c2snc(C(N)=O)c2N)C(C(=O)NC2CCCC2)C(C)C)cc1 (stereo unspecified)	-4%	·	-27%	2%
36	O=C(Nc1ccccc1F)c1oc2ccccc2c1NC(=O)C12CC3CC(CC(C3)C1)C2	·	-1.7%	13%[46.1 µM]	·

item	Cruzain noTriton	MARV entry inh	2A StopGo	SARS PLP yeast
25	7%	-4%[46.1 µM]	8%	·
26	-1%	·	55%[activator]	·
27	·	·	-5%	8%
28	10%	-2%	0%	-22%
29	·	·	-15%	3%
30	-1%	2%[46.1 µM]	-9%	3%
31	·	2%[46.1 µM]	2%	1%
32	7%	-1%	·	2%
33	25µM*	?	?	18%
34	·	?	-14%	1%
35	·	?	-28%	12%
36	-1%	-6%[46.1 µM]	-8%	·

# The list goes on, overlapping the part above by six compounds.
item	smiles	NS1 function inh	Cruzain inh Det	LASV entry inh	RE007 growth inh
31	Cc1nnc(NC(=O)CCN2C(=O)/C(=C\c3ccccc3)SC2=S)s1	-2%	·	24%[46.1 µM]	24%
32	O=C(CNS(=O)(=O)c1ccccc1)N1CCN(c2ccccc2)CC1	2%	0.7%	4%	-7%
33	O=C(Nc1cccc(Cl)c1Cl)C1CC(=O)N(c2ccc(Br)cc2)C1 (stereo unspecified)	8%	-1.1%	-5%	-8%
34	NNC(=O)c1nc[nH]c1C(=O)Nc1ccccc1[N+](=O)[O-]	·	·	-8%	10%
35	CCOc1ccc(N(C(=O)c2snc(C(N)=O)c2N)C(C(=O)NC2CCCC2)C(C)C)cc1 (stereo unspecified)	-4%	·	-27%	2%
36	O=C(Nc1ccccc1F)c1oc2ccccc2c1NC(=O)C12CC3CC(CC(C3)C1)C2	·	-1.7%	13%[46.1 µM]	·
37	O=C(Nc1nc2n(n1)C(c1ccccc1)C=C(c1ccc(Cl)cc1)N2)c1ccco1 (stereo unspecified)	·	-6.6%	-23%[46.1 µM]	·
38	Cc1nc2ccc(S(=O)(=O)NCC(=O)N3CCc4ccccc43)cc2s1	28%	7.2%	-5%	9%
39	O=C(NCC1CCCN1S(=O)(=O)c1cccs1)c1ccc(F)c(F)c1 (stereo unspecified)	·	·	?	-3%
40	CCCN(C(=O)Nc1cn(CC(C)C)c(=O)c2ccccc12)c1ccc(F)cc1	·	-7.3%	-12%[46.1 µM]	·
41	O=C(NCC1CCCO1)c1onc(CSc2cccc(Cl)c2)c1C(=O)O (stereo unspecified)	23%	2.1%	·	-8%
42	COCCNC(=O)c1cn(C)c2ccccc2c1=O	·	·	-17%[46.1 µM]	2%
43	O=C(O)c1ccc(Nc2ccc(Cl)c(Cl)c2)c([N+](=O)[O-])c1	-43%	·	·	-9%
44	Cc1cccc2sc(N(CCCN(C)C)C(=O)c3cc4ccccc4oc3=O)nc12	-1%	-4.6%	16%	-6%
45	O=C(COc1ccc(F)cc1)NCC1(N2CCCCC2)CCCCC1	·	·	31%	-5%
46	COc1ccc(/C=C2\CCc3ccccc3C2=O)cc1O	-90%	·	?	0%
47	COc1ccccc1NC(=O)C(C)OC(=O)CN1C(=O)C2CC=CCC2C1=O (stereo unspecified)	·	·	18%	2%

item	Cruzain noTriton	MARV entry inh	2A StopGo	SARS PLP yeast
31	·	2%[46.1 µM]	2%	1%
32	7%	-1%	·	2%
33	25µM*	?	?	18%
34	·	?	-14%	1%
35	·	?	-28%	12%
36	-1%	-6%[46.1 µM]	-8%	·
37	8%	-32%[46.1 µM]	0%	·
38	17%	20%	21%	0%
39	·	-2%	-25%	-7%
40	-5%	·	-18%	·
41	-5%	·	-12%	-5%
42	·	?	-9%	2%
43	·	·	-12%	-5%
44	4%	?	13%	-10%
45	·	-19%	-17%	-3%
46	·	11µM*	?	-10%
47	·	-3%[46.1 µM]	1%	·

# An unsorted share of the library. About 4.7% of those tested had a hit in this group.
